# Autofluor counter: flagged as autofluorescent in microsphere protease counterscreen | fluorescence intensity (no concentration beside the values) | hit rate 3.1% among 360,000 | compound autofluorescence counterscreen, microsphere flow cytometry; hits give high values;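 active = at least 3 SD above the mean of all compounds, about 16000 in these data; inconclusive = too few beads counted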;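 note: 100 nL of 1 mM stock went into each well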
# Mtb hypoxia rep: reduces hypoxia-regulated biosensor signal in M. tuberculosis; M. tuberculosis hypoxia-regulated fluorescent reporter, fluorescence; AID 1159583; fluorescence inhibition, % (concentration not given with the values); hit rate 0.1% among 300,000;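 active = 35 to 45% if threefold the growth effect, above 45% if 1.5-fold the growth effect; inactive = the rest, general growth blockers included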;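 note: wells of about 50 µL received 100 nL stock; 0% = vehicle wells and 100% = reference inhibitor wells; whole bacteria with a GFP reporter of the hypoxia response; strong numbers were not always called active; many hits fall short of the cut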
# BJeLR lethal: kills HRASV12-expressing BJeLR cells | BJeLR (HRASV12) viability, CellTiter-Glo ATP luminescence, 48 h; reference of the scale not given here | inhibition, % (concentration not given with the values) | hit rate 0.17% among 300,000;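 active = replicate mean above 50%; inconclusive = above 50% but judged a plate artefact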;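 note: 50 nL library stock added to about 25 µL; numbers are from one replicate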
# RN4220 kill: kills Staphylococcus aureus RN4220; hit rate 0.33% among 330,000; inhibition, % (concentration not given with the values); S. aureus RN4220 growth, OD600, 16 h;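 active = z-score of -3 or lower and OD600 up to 0.18 on both plates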;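 note: plate controls were untreated cells for no effect and reference antibiotic for full effect; stock transfer was 100 nL into about 80 µL; one replicate is shown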
# PrP 5UTR inh: suppresses PrP 5' UTR mRNA reporter expression | hit rate 0.35% among 340,000 | inhibition, % (no concentration beside the values) | AID 488862 | cell-based PrP 5' UTR mRNA reporter, plate reader;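 active = every replicate at 50% or more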;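 note: 0 = median of the neutral control wells; tested in H4 reporter cells; numbers are from one replicate; inactives centre near -14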
# ugtP null kill: kills S. aureus RN4220 lacking UgtP; S. aureus RN4220 ugtP deletion, OD600 growth, 16 h; some inactives read as strong as hits; growth inhibition, % (test concentration not listed); hit rate 0.54% among 330,000; AID 1259309;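 active = z-score under -3 and OD600 up to 0.15 on both plates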;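 note: plate controls were untreated wells for no effect and antibiotic for full effect; wells of about 80 µL received 100 nL stock; the first replicate is given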
# Mtb hypoxia rep growth: also measured in Mtb hypoxia rep; calls as there; growth inhibition, %; measured here: M. tuberculosis growth (absorbance);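 0% = vehicle and 100% = reference antibiotic; read after six days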
# Numbers without * were called inactive; ? = inconclusive; / = not tested or not shown.
SMILES,Autofluor counter,Mtb hypoxia rep,Mtb hypoxia rep growth,BJeLR lethal,RN4220 kill,PrP 5UTR inh,ugtP null kill
O=C1CC(Sc2cccs2)C(=O)N1c1ccccc1 (stereo not given),4848,15,5,-2,8.1,-10,7
C/C(NC1CCCCC1)=C(/C#N)C(=O)NCCN1CCOCC1,3074,/,/,0,/,1,/
CCCCC(=O)Nc1cnc(NC(=O)c2ccco2)cc1C,5900,8,1,-9,3.3,-53,-1
Fc1cccc(F)c1/C=N/NC(=S)Nc1cccnc1,2408,/,/,7,/,-32,/
CCc1ccc2[nH]c(=O)c(CN(CCCN3CCOCC3)C(=O)Nc3ccc(F)cc3)cc2c1,3103,1,15,-3,3.8,-13,4
COc1cc(C2C3=C(CCCC3=O)Nc3ccc4ncccc4c32)ccc1O (stereo not given),4263,1,-2,2,3.4,-1,3
COc1ccc(CC(=O)N/N=C(\C)CC(=O)Nc2ccc3c(c2)OCCO3)cc1,5547,/,/,0,/,-8,/
COc1ccc2nc(C)cc(SCC(=O)Nc3c(C)cccc3C)c2c1,2077,/,/,-7,2.8,-15,3
CN(C)CCCNC(=O)CCc1nc2ccccc2c(=O)[nH]1,2538,/,/,2,9.0,-9,-1
COc1cc(C(=O)Nc2nnc(SC)s2)c([N+](=O)[O-])cc1OC,5298,12,3,0,1.5,-35,2
O=S(=O)(c1cccs1)N1CCN(CC(O)COc2cccc(Br)c2)CC1 (stereo not given),9207,17,6,16,6.0,-27,-1
Cc1cccc(C=NNC(=O)c2cc(Br)ccc2O)n1,/,-2,11,/,4.6,/,2
COc1ccc(C2N(C(=O)c3ccccc3)CCN2C(=O)c2ccccc2)cc1,4100,7,11,8,1.5,-5,-4
CC(C)(C)OC(=O)NCCCCC(NC(=O)c1nc[nH]c1C(=O)N1CCN(c2ccccc2)CC1)C(=O)OC(C)(C)C (stereo not given),/,-15,3,/,4.7,/,1
Cc1cccc(NC(=O)CCS(=O)(=O)c2cccc3nsnc23)c1C,4448,2,8,-3,1.7,-11,11
O=C(NN=C1CCCc2ccccc21)c1cccc([N+](=O)[O-])c1,/,-1,8,/,-1.9,/,-5
CC(=O)/C(C#N)=C1\NC(=O)C(Cc2ccccc2Cl)S1 (stereo not given),4503,/,/,21,27,3,18
COc1cc(C=Nn2nnnc2N)ccc1OCc1c(C)no[n+]1[O-],/,-4,-1,/,8.1,/,-2
COc1ccc([N+](=O)[O-])cc1N1C(=O)c2cccc3cccc(c23)C1=O,9067,4,2,-13,5.4,-25,1
CC=C(C)C(=O)Nc1cccc(C2=NOC3(C2)CC(C(N)=O)N(C(=O)CCCCC)C3)c1 (stereo not given),/,-8,8,/,1.6,/,-2
O/N=C/c1ccc(OCC(O)COc2ccc(/C=N/O)cc2)cc1,2681,/,/,8,/,-7,/
COC(=O)c1ccc2c(=O)n(CCCCCC(=O)N3CCN(c4ccc(F)cc4)CC3)c(=O)[nH]c2c1,9251,5,12,-12,2.6,-22,7
O=C(NCCCN1CCOCC1)c1cc(-c2cccc(O)c2)on1,2906,-4,-9,-4,5.3,-28,10
CC(C)CC(c1nnnn1C1CCCC1)N1CCC(C(N)=O)CC1 (stereo not given),4599,-6,2,2,2.9,-11,2
CC(C)(C)[C@H]1C=C(C(=O)N2CCN(Cc3ccccc3)CC2)O[C@@H](OCCCCO)C1,3684,/,/,-8,/,-14,/
O=[N+]([O-])c1cccc(/C([O-])=C(/C(=S)Nc2ccccc2)[n+]2ccccc2)c1,1888,5,2,1,2.0,-27,8
CCN(CC)CCCn1c2c(c(SCC(=O)Nc3cccc(C(C)=O)c3)nc1=O)CCC2,5457,15,6,0,2.8,-19,7
CSc1ccc(CNC(=O)C(C)n2nc(C)c3c(C)n(-c4ccccc4)nc3c2=O)cc1 (stereo not given),5681,7,5,-3,3.3,-12,3
CCOc1ccc(S(=O)(=O)N2CCN(C(=O)c3oc4ccccc4c3C)CC2)cc1,4347,1,7,/,-2.9,2,11
COc1ccc(NS(=O)(=O)c2cccc(N3CC(O)=C(c4ccccc4)C3=N)c2)cc1,2512,/,/,-1,-5.2,-14,1
NC(Cc1ccccc1)C(=O)N1CCOCC1 (stereo not given),/,5,10,/,1.9,/,0
O=C(Nc1ccnn1C1CCN(Cc2cccc(O)c2)CC1)C1CCCC1,6685,6,-2,3,0.0,-1,-1
COc1ccc(OCCSc2ccc(S(=O)(=O)N3CCCC3)cn2)cc1,3882,12,11,/,2.3,-14,12
O=C(O)c1ccc2c(c1)C(=O)N(c1ccc(/C=C/C(=O)c3ccccc3)cc1)C2=O,2587,1,1,-4,0.8,-9,4
CC(=O)Nc1ccccc1NC(=O)CN(C)S(=O)(=O)c1ccc(C)cc1,6784,1,-1,4,1.5,-6,4
CC(C)C(C(=O)OCC(=O)c1cccc([N+](=O)[O-])c1)N1C(=O)[C@@H]2[C@H]3CC[C@H](C3)[C@@H]2C1=O (stereo not given in full),9556,6,1,-12,2.3,-9,1
CCOc1cc(/C=N/N2C(=O)NC3(CCCCC3)C2=O)cc(Br)c1O,4590,/,/,5,/,-18,/
CC(C)Cc1nnc(NC(=O)CCc2c[nH]c3ccccc23)s1,4048,-5,-4,8,-4.5,-5,4
O=C(Nc1cccc(C(F)(F)F)c1)C1CCCN1S(=O)(=O)c1cccc2cccnc12 (stereo not given),20787*,-1,0,-9,0.5,-18,0
COc1ccc(Cl)cc1NC(=O)CCN1CCN(c2ccccc2C)CC1,10149,8,3,-7,2.9,-21,-5
O=C(c1ccc(Br)c([N+](=O)[O-])c1)N1CCN(Cc2ccccc2)CC1,3802,-10,-3,-5,1.4,2,2
CCOC(=O)c1cccc(NC(=O)C2(S(=O)(=O)c3ccc(C)cc3)CC2)c1,2027,1,7,2,3.3,-14,3
Cc1cc(C(=O)CCl)c(C)n1-c1cccc([N+](=O)[O-])c1,3292,22,29,/,8.3,-51,9
COc1ccc(CC(=O)OCC(=O)c2ccc(S(=O)(=O)N3CCCCC3)cc2)cc1,4383,-5,-4,/,1.0,4,-1
Cc1ccc(-c2nc(CN3CCCCC3CCN3CCCC3=O)c(C)o2)o1 (stereo not given),3873,-10,-6,0,0.9,-17,-2
CCCNC(=O)C(NS(=O)(=O)c1cccc2nsnc12)c1ccccc1 (stereo not given),3062,19,10,-4,3.3,-26,5
Cc1ccc(-c2nnn(C/C(N)=N/O)n2)cc1,2183,3,-5,-3,2.6,2,-2
CC(=O)Nc1ccc(S(=O)(=O)N2CCN(C(=O)c3ncoc3-c3ccccc3)CC2)cc1,5356,-17,0,-11,0.0,-3,-2
OCC1=C[C@@H](O)[C@@H]2C=CO[C@@H](O[C@@H]3O[C@H](CO)[C@@H](O)[C@H](O)[C@H]3O)[C@H]12,2868,3,2,/,5.0,65*,12
Cc1c(NC(=O)COC(=O)c2ccc(F)c(S(=O)(=O)N3CCOCC3)c2)c(=O)n(-c2ccccc2)n1C,4345,13,3,1,3.0,-81,5

# The list continues:
SMILES,Autofluor counter,Mtb hypoxia rep,Mtb hypoxia rep growth,BJeLR lethal,RN4220 kill,PrP 5UTR inh,ugtP null kill
CCCC(=O)N(c1ccccc1)C1C=CS(=O)(=O)C1 (stereo not given),2464,-9,-10,7,2.6,-3,7
Fc1ccc(Nc2nc(-c3ccncc3)cs2)cc1,3110,10,1,10,-5.6,-38,2
c1ccc2sc(NN=C3CCCC3)nc2c1,4204,17,14,6,2.2,-42,-2
COc1cc(C(=O)NNC(=O)c2cc(C)[nH]n2)cc(OC)c1OC,4648,10,2,0,0.4,-10,9
CCOc1cc(C=NNC(=O)CCn2nc(C)cc2C)ccc1O,/,5,-4,/,-0.3,/,-2
CN(C)CCN(C(=O)CCc1ccccc1)c1nc2c(F)cc(F)cc2s1,4090,12,12,6,0.0,-20,8
COc1ccc(N2CCN(C(=O)CNS(=O)(=O)c3ccc(C)c(C)c3)CC2)cc1,2018,-8,2,1,5.9,-8,7
CCC(CC)C1=NN2C(=N)C(=Cc3cc(C)n(-c4cccc(C)c4)c3C)C(=O)N=C2S1,/,3,7,/,4.4,/,3
O=C(O)C1CCCCC1C(=O)N1CCCC1 (stereo not given),5033,15,6,4,0.6,-30,2
Cc1cc(SCC(=O)c2cccs2)n2nc(C)c(-c3ccccc3)c2n1,2080,4,-1,-9,7.5,0,-23
O=C(NN=C1CC2C=CCC12)c1ccc(Br)o1 (stereo not given),/,1,-1,/,6.4,/,7
CC(=O)c1cc2c(s1)-c1cc(F)ccc1OC2,5371,-6,-4,-12,11,-15,11
O=C(NCCN1CCOCC1)c1cccc(S(=O)(=O)Nc2cc(Cl)ccc2Cl)c1,/,1,-10,/,5.7,-16,3
COC(=O)C1C2C=CC3(CN(c4cccc(C)c4)C(=O)C13)O2 (stereo not given),2520,-4,12,-8,11,-12,1
C=CCc1ccccc1OCCSc1nc2ccc([N+](=O)[O-])cc2s1,2515,5,11,2,13,-9,2
CCCCC(CC)Cn1c(O)c(/C=C2\C=NN=C2c2ccccc2)sc1=S (stereo not given),8806,5,2,-5,-13,-17,5
N#CCN(C(=O)COC(=O)C1CC2CCCC(C1)C2=O)c1ccccc1 (stereo not given),5134,-5,0,-17,-2.5,-10,-2
O=C(COc1ccc(Br)cc1CO)Nc1ccc(S(=O)(=O)N2CCCCC2)cc1,3926,-3,2,/,-8.6,-10,-10
CCOc1ccc(CCNC(=O)COC(=O)c2cc(S(=O)(=O)N3CCOCC3)ccc2F)cc1OCC,?,/,/,8,/,6,/
CC(=O)Nc1ccc(S(=O)(=O)NN=Cc2ccc(Cl)c(Cl)c2)cc1,4275,8,4,/,2.4,-8,-1
Cc1ccc(S(=O)(=O)c2nc(S(C)(=O)=O)sc2NCc2ccc3c(c2)OCO3)cc1,2147,-2,3,-16,-0.4,-14,-3
CCOc1cc(C=C2C(=O)NC(=O)NC2=O)ccc1OCC(=O)N1CCOCC1,2409,-6,14,11,-0.2,-12,-1
CC1CCCN(S(=O)(=O)c2ccc(NC(=O)CN3CCCCC3)cc2)C1 (stereo not given),3051,20,6,-4,-0.3,-5,3
C=CCNC(=S)NNC(=O)c1ccco1,4304,0,2,-1,1.9,-12,3
Cc1nn(-c2ccccc2)c2c1C(c1ccc(F)cc1F)C(C#N)=C(N)O2 (stereo not given),9918,8,4,9,4.4,-6,-7
CCOc1cc(C2C(C#N)=C(N)Oc3n[nH]c(CC)c32)ccc1OCCN1CCOCC1 (stereo not given),4460,/,/,-3,3.9,-16,7
Cc1c(/C(O)=C2\C(=O)C(=O)N(CCN(C)C)C2c2ccccc2)cnn1-c1ccccc1 (stereo not given),/,-8,2,-3,2.0,-11,2
FC(F)(F)c1cccc(N2CCN(C3CC4CCC3C4)CC2)c1 (stereo not given),4275,0,7,2,-1.0,-15,-1
CC(=O)Nc1ccc(/C=N/N2C(C)CCCC2C)cc1 (stereo not given),4153,/,/,-2,/,-9,/
CC(C)=CC(=O)Nc1ccccc1C(N)=O,9235,9,-11,-2,5.1,-46,12
CCOC(=O)c1c(C)n(C)c2ccc(OCC(N)=O)cc12,5468,9,4,1,3.2,16,8
c1c(CC2CCCC2)nnn1C[C@H]1CC[C@@H]([C@@H]2CC[C@H](Cn3cc(CC4CCCC4)nn3)O2)O1,3940,/,/,3,/,-13,/

# Fetched one by one from above:
SMILES,Autofluor counter,Mtb hypoxia rep,Mtb hypoxia rep growth,BJeLR lethal,RN4220 kill,PrP 5UTR inh,ugtP null kill
CCN(CC)CCCn1c2c(c(SCC(=O)Nc3cccc(C(C)=O)c3)nc1=O)CCC2,5457,15,6,0,2.8,-19,7
CC(C)C(C(=O)OCC(=O)c1cccc([N+](=O)[O-])c1)N1C(=O)[C@@H]2[C@H]3CC[C@H](C3)[C@@H]2C1=O (stereo not given in full),9556,6,1,-12,2.3,-9,1
COc1ccc(NS(=O)(=O)c2cccc(N3CC(O)=C(c4ccccc4)C3=N)c2)cc1,2512,/,/,-1,-5.2,-14,1
Cc1cc(C(=O)CCl)c(C)n1-c1cccc([N+](=O)[O-])c1,3292,22,29,/,8.3,-51,9
CN(C)CCCNC(=O)CCc1nc2ccccc2c(=O)[nH]1,2538,/,/,2,9.0,-9,-1
O=[N+]([O-])c1cccc(/C([O-])=C(/C(=S)Nc2ccccc2)[n+]2ccccc2)c1,1888,5,2,1,2.0,-27,8
O=C(O)c1ccc2c(c1)C(=O)N(c1ccc(/C=C/C(=O)c3ccccc3)cc1)C2=O,2587,1,1,-4,0.8,-9,4
